Screens (PubChem)
KSHV LANA nucl = LANA-nucleosome interaction inhibition | FITC-LANA1-23 / chicken nucleosome fluorescence polarization; active compounds read low | z-score (no concentration beside the values) | 51,000 compounds, 0.3% hits;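 active = both repeat wells score below -2 in polarization z-score versus plate sample wells, excluding overly bright wells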;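 note: 100 nL library stock added to about 30 µL; numbers are from one replicate; some results filed as inactive read as strong as hits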
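Material: Purified chicken nucleosomes with FITC-labelled LANA N-terminal peptide (1-23) | Reagent: 50 nM FITC-LANA1-23 probe | Medium: TEN-BT buffer, pH 7.5 | Times: 10–45 min incubation at room temperature | Detection: Fluorescence polarization | Replication: Duplicates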
Ab BasE inh = inhibitors of Acinetobacter baumannii siderophore enzyme BasE; purified BasE, fluorescence polarization binding displacement; 84,000 compounds, 0.1% hits; AID 485350; inhibition, % (test concentration not listed);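 active = both replicates above 25% with normal brightness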;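 note: 0% = negative plate control signal and 100% = positive plate control signal; stock transfer was 100 nL into about 30 µL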
* = called active by the depositor; nt = no result given; & = joins results of further samples.

Each structure is followed by: KSHV LANA nucl, Ab BasE inh
O=C1CC(=O)N(c2cccc(F)c2)C(=S)N1
 : 0.41, 0.1
Cn1c(=O)cc(SCC(=O)N2CCC3(CC2)OCCO3)c2ccccc21
 : 0.15, 1.5
OC[C@@H]1CCCN2CCCC[C@H]12
 : -0.21, -1.9
O=C(O)C(Cc1cnc[nH]1)NS(=O)(=O)c1cccs1 (stereo not drawn)
 : nt, -1.8
c1ccc2c(CNC3CCCCC3)c[nH]c2c1
 : -1.7, -0.3
c1ccc2sc(N3CCNCC3)nc2c1
 : 0.75, -2.4
Cc1ccc(CN2CCCN(CC(N)=O)S2(=O)=O)cc1
 : nt, 1.6
NCCc1ccccn1
 : -0.024, 1.5
O=S(=O)(c1ccc(Cl)cc1)N1CCCCC1c1cccnc1 (stereo not drawn)
 : -0.097, 1.5
Cc1cccnc1-n1c(C)nc2ccccc2c1=O
 : -0.68, 1.8
C[C@]12CCC(=O)C=C1CC[C@@H]1[C@@H]2CC[C@@]2(C)[C@H]1CC[C@]2(C)O
 : 0.65, nt
Cc1cc(-n2c(=S)[nH]c3ccccc3c2=O)ccc1Br
 : nt, 0.2
[N-]=[N+]=CC(=O)OCC(N)C(=O)O (stereo not drawn)
 : -0.58&0.31, 0.6
Oc1ccc2c3c1O[C@H]1[C@@H](O)CC[C@@]4(O)[C@@H](C2)N(CC2CCC2)CC[C@]314
 : 0.24&-1.1, -2.7
C/C=C1/C[N+]2(C)CCC34C(=C(C=O)[C@H]1C[C@@H]32)Nc1ccccc14 (stereo partly drawn)
 : 0.45, -1.1
C[C@H](N)[C@H](O)c1ccc(O)c(O)c1
 : 0.044&0.84, -0.7
O=c1[nH]oc2c1CCNC2
 : -0.075, 0.8
CC(C(=O)NCC1CCCCC1)N1CC=C(c2ccccc2)CC1 (stereo not drawn)
 : nt, -1.1
C=CCN1C(=O)CC(=O)NC1=S
 : -0.58, 0.5
CC(C)C1(C)N=C(c2ncccc2C(=O)O)NC1=O (stereo not drawn)
 : nt, 0.8
O=c1[nH]c(=S)[nH]c(O)c1C(c1ccc(F)cc1)N1CCCCC1 (stereo not drawn)
 : 0.55, 3.9
O=C1CN=C(c2ccccc2)c2c(sc3c2CCCC3)N1CCN1CCOCC1
 : 0.33, -1.9
Oc1cc2c(cc1O)[C@H]1c3ccccc3CN[C@@H]1CC2
 : 0.015, nt
Cc1ccc(N=CN(C)C=Nc2ccc(C)cc2C)c(C)c1
 : 0.38&0.17, 1.1
N#CC(/C=C/c1ccccc1)N1CCOCC1 (stereo not drawn)
 : 0.19, nt
CC12C/C(=C\c3ccccc3)C(=O)C[C@@H]1CCC1C2CCC2(C)C1CC[C@]2(C)O (stereo partly drawn)
 : nt, -0.3
N#CSCC(=O)N1c2ccccc2CCc2ccccc21
 : -0.073, 6.7
C[C@@H]1NCCc2cc(O)c(O)cc21
 : -0.13, 0.5
Cc1ccc(-c2nc3ccc(C)cn3c2CC(=O)N(C)C)cc1
 : 0.037&-0.2, -2.8
C[C@]12CCC3[C@@H](CC[C@@H]4C[C@H](O)CC[C@]34C)[C@@H]1CCC2=O (stereo partly drawn)
 : 0.7, -0.9

Each structure is followed by: KSHV LANA nucl, Ab BasE inh
COCCCNC1CCC(C)C1 (stereo not drawn)
 : 0.091, 2.3
N#Cc1ccc(CN2CCNCC2)cc1
 : nt, 2.1
CNC(=O)Oc1c(Cl)cc(Cl)cc1Cl
 : 0.044, 1.8
O=C1NC(=O)N(c2ccc3c(c2)OCO3)C(=O)/C1=C/c1ccsc1
 : -0.54, 1.5
CC1=CC(=C2C(=O)NC(=O)NC2=O)C=C(C(F)(F)F)N1C(C)C
 : 0.074, 1.7
C=CCN1C(=O)C2(C(C#N)=C(N)OC(C)=C2C(=O)OC)c2ccccc21 (stereo not drawn)
 : -0.48, 1.7
c1ccc(CC2CCCCN2)cc1 (stereo not drawn)
 : -0.15, -0.1
COc1ccc(CN2CCN(C)CC2)cc1Br
 : 0.16, 1.7
CC[C@@H](C(N)=O)N1CCCC1=O
 : -0.41&0.098, nt
COc1ccccc1N1C(=O)NC(=O)/C(=C\C=C\c2ccco2)C1=O
 : nt, 0.3
COC(=O)N(c1ccccc1)P1(=S)OCCO1
 : 1.5, -2.4
CC(=O)N1c2nonc2N(C(C)=O)c2nonc21
 : -0.15, 1.3
c1cncc(CNC2CC2)c1
 : 0.5, 6.0
O=C1CC2OCC=C3CN4CC[C@]56c7ccccc7N1C5[C@H]2[C@H]3CC46 (stereo partly drawn)
 : 0.19&-0.28, -0.6
Cn1cc(Cl)c(C=C(C#N)C#N)n1
 : -0.97, 0.4
Cc1cc(OCC(=O)C(C)(C)C)c2c3c(c(=O)oc2c1)CCCC3
 : 0.59, 0.3
CNC(C)C(O)c1ccccc1 (stereo not drawn)
 : 0.46&0.73, -0.9
CC(O)CP(c1ccccc1)c1ccccc1 (stereo not drawn)
 : 0.23, -0.1
CC(C)c1ccc(C(=O)C2CN3CCC2CC3)cc1 (stereo not drawn)
 : -0.84, 0.2
CN(C)Cc1c[nH]c2ccccc12
 : 0.34, 0.3
CCCCC/C=C\C/C=C\C/C=C\C/C=C\CCCC(=O)N[C@H](C)CO
 : 1.1, -4.6
CCOC(=O)C1=C(N)Oc2c(c(=O)oc3ccccc23)C1c1ccccc1 (stereo not drawn)
 : nt, 2.5
c1cncc(CNCCc2c[nH]c3ccccc23)c1
 : 1.3, -2.3
Cc1cc(N2CC3CC(C2)c2cccc(=O)n2C3)n2ncnc2n1 (stereo not drawn)
 : 0.1, -1.1
CC(C)CC12CN3CCN(CC(C3)/C1=N/O)C2
 : -0.072, 2.1
O=C1NC(=O)C(=Cc2cn(CCOc3ccc4c(c3)OCO4)c3ccccc23)C(=O)N1
 : nt, 0.6
O=C1CC(=O)N(C2CCCCC2)C(=O)N1
 : -0.044, -1.2
FCCOc1ccc(OCCF)cc1
 : 0.11, 0.5
C[C@@]1(CO)[C@H](O)CC[C@@]2(C)[C@H]1CC[C@H]1C[C@@H]3C[C@@]12CC[C@]3(O)CO
 : -0.38, -1.4
CC1CN=C(Nc2ccc(F)cc2)S1 (stereo not drawn)
 : nt, 1.8

Entries of single compounds, quoted from the list. Screens in order: KSHV LANA nucl | Ab BasE inh
CC1=CC(=C2C(=O)NC(=O)NC2=O)C=C(C(F)(F)F)N1C(C)C as listed: 0.074 | 1.7
COc1ccccc1N1C(=O)NC(=O)/C(=C\C=C\c2ccco2)C1=O as listed: nt | 0.3
CC(C)CC12CN3CCN(CC(C3)/C1=N/O)C2 as listed: -0.072 | 2.1
COc1ccc(CN2CCN(C)CC2)cc1Br as listed: 0.16 | 1.7
C[C@@]1(CO)[C@H](O)CC[C@@]2(C)[C@H]1CC[C@H]1C[C@@H]3C[C@@]12CC[C@]3(O)CO as listed: -0.38 | -1.4

Later entries:
Structure	KSHV LANA nucl	Ab BasE inh
CC(c1ccccc1F)n1cc(C(=O)Nc2ccc3nc[nH]c3c2)nn1 (stereo not drawn)	-1.4	-31
c1ccc2oc(C3CCNCC3)nc2c1	nt	-2.0
Cn1ccc(P(=O)(N2CCOCC2)N2CCOCC2)c1	nt	-1.4
O=c1[nH]c(CN2CCNCC2)nc2ccccc12	-0.28	4.5
Cc1ccccc1CN1CCN(C(C)C)CC1	nt	0.1
O=S(=O)(c1ccccc1)N1CCCCC1c1cccnc1 (stereo not drawn)	-1.2	nt
CC1OC(O[C@H]2C[C@@H](O)[C@]3(CO)[C@H]4[C@H](O)C[C@]5(C)[C@@H](C6=CC(=O)OC6)CC[C@]5(O)[C@@H]4CC[C@]3(O)C2)C(O)C(O)C1O (stereo partly drawn)	0.83	-0.1
CN1CCc2c(C#N)c(N)n(N)c(=S)c2C1	-3.8*	42
CC(C)CP(=O)(O)c1ccccc1	0.45	-0.6
Cc1nn(Cc2ccccc2)c(C)c1C(=O)OCC(=O)NCc1ccco1	nt	1.0
CCCc1nc(C)cc(N2CCN(C)CC2)n1	-0.39	0.8
CC1=C(C)C(=O)C(C)=C(C)C1=O	0.072	0.1
NC(N)=NOCC[C@@H](N)C(=O)O	-0.55	-0.2
CC(C)C(C)(N)C#N (stereo not drawn)	nt	-0.8
Cc1ccc(CN(C(=O)NC2CCCC2)C2CCN(Cc3ccccc3)CC2)o1	0.3	0.0
O=C(OCc1cc(=O)n2ccsc2n1)C(O)(c1ccccc1)c1ccccc1	nt	-6.3
OC(CNCCC1=CCCCC1)c1ccccc1 (stereo not drawn)	nt	-3.3
C=C1[C@@H](C)[C@H]2[C@H](Cc3ccccc3)NC(=O)[C@]23[C@H](OC(C)=O)/C=C/[C@](C)(O)C(=O)[C@@H](C)C/C=C/[C@H]3[C@@H]1O	0.42	0.1
CC12CN3CC(C)(C1O)C(O)C(C)(C3)C2O (stereo not drawn)	nt	0.7
CCNCC(O)c1cccc(OC(=O)c2ccccc2C)c1 (stereo not drawn)	nt	-0.8
N=c1c[n+](CC23CC4CC(CC(C4)C2)C3)[n-]o1	nt	1.3
Nc1cc(Cl)ccc1Cl	nt	1.8
Cc1cc(C#N)c(C)n1-c1ccc(Cl)cc1C(=O)c1ccccc1Cl	nt	-0.1
CC(N)c1cccnc1 (stereo not drawn)	nt	1.9
CC(C)[C@]12O[C@H]1[C@@H]1O[C@]13[C@]1(O[C@H]1C[C@H]1C4=C(CC[C@@]13C)C(=O)OC4)[C@@H]2O	0.021&-0.041	1.1

Structure	KSHV LANA nucl	Ab BasE inh
Clc1ccc(CN2CCN(c3cccc4[nH]ccc34)CC2)cc1Cl	-1.4	nt
O=c1c2ccccc2ncn1CN1CC=C(c2ccccc2)CC1	nt	0.8
Cn1cccc1CNCCc1ccccc1	1.3	-2.4
N#Cc1c(Cl)nc(N2CCOCC2)c(Cl)c1Cl	-1.6	-0.2
C=CCC1(CC=C)C(=O)N(C)C(=O)N(C)C1=O	1.4	0.4
COc1ccc2c(c1)O/C(=C\c1cccc(OC(=O)N(C)C)c1)C2=O	0.24	2.3
CNC(=O)Oc1ccc(-c2nc(CSc3ccc(Cl)cc3)cs2)cc1	nt	1.3
O=P1(Nc2ccc(Cl)cc2)CC=CC1	0.2	0.5
CN1CCN(P2(=S)C3=C(CCC3)C3=C(CCC3)N2c2ccccc2)CC1 (stereo not drawn)	nt	1.3
CN(C)c1ccc(C=C2C(=O)NC(=S)NC2=O)cc1	0.52	-0.1
CSc1cccc(NC(=O)CCc2nc(C3=CCN(C)CC3)no2)c1	0.53	0.2
NC(CO)Cc1ccccc1 (stereo not drawn)	-0.88	0.3
O=C(Nc1cccc(C(F)(F)F)c1)OC1CN2CCC1CC2 (stereo not drawn)	-1.1	nt
S=C(Nc1ccccc1)N1CCCCC1c1cccnc1 (stereo not drawn)	nt	-0.4
O=C1Nc2ccc(Cl)cc2C(c2ccccc2Cl)=NC1O (stereo not drawn)	-0.17	nt
CCNCC(O)c1cccc(O)c1 (stereo not drawn)	-0.33	-1.3
CCN(CC(=O)c1ccc(C#N)cc1)C1CCCCC1	nt	2.7
COC1=CC(=O)O[C@@H](/C=C/c2ccccc2)C1	0.34	-1.4
COc1ccc(C2(CN)CCOCC2)cc1	-0.83	-1.2
Nc1ccncc1	0.29&0.41&-0.026	-1.4&-0.9
N#Cc1c(/N=C/c2cc(Br)ccc2O)sc2c1C1CCN2CC1	nt	2.9
CCOC(=O)C1=C(N)Oc2cc(C)n(C)c(=O)c2C12C(=O)N(Cc1ccccc1)c1ccccc12 (stereo not drawn)	-0.91	2.6
CC(Cc1ccccc1)[n+]1cc(/N=C(/N)[O-])on1 (stereo not drawn)	nt	-1.2
CCN(CC)C(=O)N[C@H]1C[C@@H]2c3cccc4[nH]cc(c34)C[C@H]2N(C)C1	0.37	-1.3
Cc1ccc(C=C(C#N)C#N)c(C)c1	0.57	3.3

Structure	KSHV LANA nucl	Ab BasE inh
Cc1cc([P+](=O)O)c(C)n1-c1ccc(Br)cc1	nt	0.6
O=C1CCCN2C(=N1)SC(=S)N2CN1CC2CC(C1)c1cccc(=O)n1C2 (stereo not drawn)	-0.27	-0.2
O=C1NC(=O)C(CCc2ccncc2)(CCc2ccncc2)C(=O)N1C1CCCCC1	-0.23	-0.2
COc1ccc2c(CN3CC=C(c4ccccc4)CC3)cc(=O)oc2c1	nt	1.3
O=C(Nc1ccc(F)cc1)OC1CN2CCC1CC2 (stereo not drawn)	-0.32	nt
CNC(C)(C)Cc1ccccc1	-0.064&1.8&-0.44	-3.8&-1.8
CCOC(=O)C1SC2(C(F)F)CC1(O)c1c(c(OC)c3occc3c1OC)O2 (stereo not drawn)	0.36	3.2
O=P1(N2CCOCC2)C=C(c2ccccc2)c2cc(Cl)ccc2O1 (stereo not drawn)	nt	1.1
CC(C)Cc1nc2ccccc2c(=O)n1-c1ccccc1	-0.66	1.4
CN1C(=O)C(C(=O)O)C2CC1Oc1ccccc12 (stereo not drawn)	1.8	-1.2
O=C1NC(=O)N(Cc2ccccc2)C(=O)/C1=C/c1ccc2c(c1)OCO2	0.13	-0.6
O=C(c1cn(Cc2nc(-c3cccs3)no2)c2ccccc12)C(F)(F)F	0.46	0.6
C=CCN1C(=O)/C(=C/c2ccco2)C(=O)NC1=S	0.37	8.9
c1ccc2c(c1)Nc1ccccc1S2	-0.25&0.68	-0.2
CCSc1nnc(CCNC2CCCCC2)n1C	-0.19	1.8
CC(Cc1ccccc1)[n+]1cc(N)on1 (stereo not drawn)	nt	1.9

Arranged by heavy-atom count (smallest number first): some entries from above.
Structure	KSHV LANA nucl	Ab BasE inh
CNC(C)(C)Cc1ccccc1	-0.064&1.8&-0.44	-3.8&-1.8
CC(Cc1ccccc1)[n+]1cc(N)on1 (stereo not drawn)	nt	1.9
Cc1cc([P+](=O)O)c(C)n1-c1ccc(Br)cc1	nt	0.6

Some of the compounds tested (hit frequency here may not be typical).
